Source: PubChem BioAssay (Fisher Drug Discovery Resource Center)
NPYLR7 ag: activates Aedes aegypti NPYLR7 receptor; activation, % at 10 µM; 270,000 tested, 0.15% active; HEK293T NPYLR7/Galpha15, GCaMP6s calcium fluorescence; in the data active = activation above about 40%;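 note: 0% = vehicle and 100% = reference agonist at the receptor; some compounds past the cut are filed as inactive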
NPYLR7 ag max-min: second read-out of NPYLR7 ag, no call of its own (marks repeat the call); activation, %; measured here: Max-Min RFU normalised activation; some inactives read as strong as hits;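 span of the calcium signal over five minutes; 0% = vehicle and 100% = native peptide agonist; compound fluorescence can raise it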
* hit, by the source's call; & = joins results of further samples.

Results for CCOc1ccc(CN(Cc2cccc(C(F)(F)F)c2)Cc2nc(C(=O)NCCN3CCOCC3)co2)cc1 ?
NPYLR7 ag: 17.7; NPYLR7 ag max-min: 28.6

Results for COc1c(O)ccc(C2NC(=O)N(CCc3ccccc3)C(c3ccccc3)=C2C(C)=O)c1[N+](=O)[O-] (stereo not drawn) ?
NPYLR7 ag: -1.9; NPYLR7 ag max-min: -3.3

How did CC1=C(C(=O)N(Cc2ccsc2)C2CC2)C(c2nc[nH]c2C)NC(=O)N1 (stereo not drawn) do in these assays?
NPYLR7 ag: 0.9; NPYLR7 ag max-min: 0.9

What do the screens show for `Cc1onc(-c2c(Cl)cccc2Cl)c1C(=O)NCC1CCCO1` (stereo not drawn)?
NPYLR7 ag: 2.3; NPYLR7 ag max-min: -0.2

What do the screens show for `COc1ccccc1-c1nc2cc(C)ccn2c1NC(=O)c1ccccc1`?
NPYLR7 ag: -4.1; NPYLR7 ag max-min: -4.0

Results for COC(=O)C(C)CN(C)C(=O)NC(C)c1c(F)cccc1Cl (stereo not drawn) ?
NPYLR7 ag: 8.6; NPYLR7 ag max-min: 4.6

Results for COC(=O)c1c(NC(=O)CSc2nnnn2-c2ccccc2)sc(C)c1-c1ccccc1 ?
NPYLR7 ag: -5.9; NPYLR7 ag max-min: -11.1

Results for Cc1ccc(NC(=O)C2C(C=C(Cl)Cl)C2(C)C)cc1 (stereo not drawn) ?
NPYLR7 ag: 21.4; NPYLR7 ag max-min: 10.0

Results for O=C(C=Cc1cc2c(cc1[N+](=O)[O-])OCCO2)c1c(-c2ccccc2)c2cc(Cl)ccc2[nH]c1=O ?
NPYLR7 ag: -10.5; NPYLR7 ag max-min: -13.1

Results for C=CCNC(=S)NN=Cc1ccc2c(c1)OCCO2 ?
NPYLR7 ag: 0.6; NPYLR7 ag max-min: -0.3

How did Cc1nonc1CN(C)Cc1cn(Cc2ccccc2)nc1-c1ccc2c(c1)OCO2 do in these assays?
NPYLR7 ag: 7.0&-6.9; NPYLR7 ag max-min: -0.4&-8.0

How did CCc1ccc(CN(C)Cc2cn[nH]c2-c2cc(OC)c(OC)c(OC)c2)nc1 do in these assays?
NPYLR7 ag: 15.9; NPYLR7 ag max-min: 5.3

Results for Cc1nc2c(=O)n(CC(=O)NCCc3ccccc3)nc(-c3ccc(Cl)cc3)c2s1 ?
NPYLR7 ag: -0.8; NPYLR7 ag max-min: -3.2

What do the screens show for `CCOC(=O)CCCSc1nnc(-c2ccc(OC)c(OC)c2)n1-c1ccc(C)cc1`?
NPYLR7 ag: 5.3; NPYLR7 ag max-min: 7.5

What do the screens show for `CN1CCC[C@@H]1Cc1c[nH]c2ccc(CCS(=O)(=O)c3ccccc3)cc12`?
NPYLR7 ag: 0.7; NPYLR7 ag max-min: -9.3

Results for CCOc1ccc(C2CCCN2CCCc2nc(C)no2)cc1 (stereo not drawn) ?
NPYLR7 ag: 9.6; NPYLR7 ag max-min: 7.3

Results for Cc1ccc2c(C(=O)N(C)C(C)c3ccccn3)cc(C)nc2c1 (stereo not drawn) ?
NPYLR7 ag: -1.1; NPYLR7 ag max-min: -4.2

What do the screens show for `CS(=O)(=O)c1ccccc1S(=O)(=O)NCCSC1Sc2ccccc2NC1=O` (stereo not drawn)?
NPYLR7 ag: -4.7; NPYLR7 ag max-min: -9.1

Results for Cn1c(=O)c2c(ncn2CC(=O)NCCN2C(=O)CSC2=O)n(C)c1=O ?
NPYLR7 ag: -1.1; NPYLR7 ag max-min: -3.6

Results for Cc1nn(C)c2nc(NNC(=O)Nc3cc(Cl)nc(Cl)c3)cc(C(C)C)c12 ?
NPYLR7 ag: -7.3; NPYLR7 ag max-min: -15.7

What do the screens show for `CCCCCn1c(=NC(C)=O)c(C#N)cc2c(=O)n3cccc(C)c3nc21`?
NPYLR7 ag: 0.6; NPYLR7 ag max-min: 8.9

What do the screens show for `Cc1nc2c3ccccc3nn2c(C)c1CCC(=O)Nc1ccccc1`?
NPYLR7 ag: -1.0; NPYLR7 ag max-min: -3.1

Results for O=C(N1CCC(c2nc(-c3ccccc3F)no2)CC1)C1(c2ccc(Cl)cc2)CCCC1 ?
NPYLR7 ag: -9.3; NPYLR7 ag max-min: -13.4

Results for N#Cc1ccccc1CSc1nnc(-c2c[nH]c3ccccc23)o1 ?
NPYLR7 ag: 9.0; NPYLR7 ag max-min: 6.6

Results for CC(Sc1ccccn1)C(=O)N1CCCN(C)C2(CCN(C)CC2)C1 (stereo not drawn) ?
NPYLR7 ag: 2.8; NPYLR7 ag max-min: -1.0

What do the screens show for `COCc1cc(C)nc(OCC(=O)N/N=C\c2ccc(C)o2)c1C#N`?
NPYLR7 ag: -12.2; NPYLR7 ag max-min: -16.5

How did O=C(NC1CCSc2c(F)cccc21)C1CCN(C(=O)Nc2ccccc2)CC1 (stereo not drawn) do in these assays?
NPYLR7 ag: -2.1; NPYLR7 ag max-min: -3.7

Results for COC(=O)[C@@H]1OC(=O)C2OC23[C@@]1(C)CCC1[C@@]2(C)CCC(=O)C(C)(C)C2C[C@@H](OC(C)=O)[C@]13C (stereo partly drawn) ?
NPYLR7 ag: 0.4; NPYLR7 ag max-min: -5.4

Results for COc1ccc(S(=O)(=O)NCCCN2CCOCC2)cc1N1CCN(C(=O)C(OC(C)=O)c2ccccc2)CC1 (stereo not drawn) ?
NPYLR7 ag: 23.3; NPYLR7 ag max-min: 12.9

Results for Nc1nccnc1C(=O)N1CCCCCC1C1CCCCC1 (stereo not drawn) ?
NPYLR7 ag: -1.2; NPYLR7 ag max-min: -2.5

Random excerpt: seven compounds from above, in no set order.
How did O=C(NC1CCSc2c(F)cccc21)C1CCN(C(=O)Nc2ccccc2)CC1 (stereo not drawn) do in these assays?
NPYLR7 ag: -2.1; NPYLR7 ag max-min: -3.7

Results for O=C(N1CCC(c2nc(-c3ccccc3F)no2)CC1)C1(c2ccc(Cl)cc2)CCCC1 ?
NPYLR7 ag: -9.3; NPYLR7 ag max-min: -13.4

Results for O=C(C=Cc1cc2c(cc1[N+](=O)[O-])OCCO2)c1c(-c2ccccc2)c2cc(Cl)ccc2[nH]c1=O ?
NPYLR7 ag: -10.5; NPYLR7 ag max-min: -13.1

Results for COC(=O)C(C)CN(C)C(=O)NC(C)c1c(F)cccc1Cl (stereo not drawn) ?
NPYLR7 ag: 8.6; NPYLR7 ag max-min: 4.6

What do the screens show for `COc1ccccc1-c1nc2cc(C)ccn2c1NC(=O)c1ccccc1`?
NPYLR7 ag: -4.1; NPYLR7 ag max-min: -4.0

What do the screens show for `COCc1cc(C)nc(OCC(=O)N/N=C\c2ccc(C)o2)c1C#N`?
NPYLR7 ag: -12.2; NPYLR7 ag max-min: -16.5

What do the screens show for `CCOC(=O)CCCSc1nnc(-c2ccc(OC)c(OC)c2)n1-c1ccc(C)cc1`?
NPYLR7 ag: 5.3; NPYLR7 ag max-min: 7.5

Returning to the listing, repeating the 2 entries before the break.
Results for COc1ccc(S(=O)(=O)NCCCN2CCOCC2)cc1N1CCN(C(=O)C(OC(C)=O)c2ccccc2)CC1 (stereo not drawn) ?
NPYLR7 ag: 23.3; NPYLR7 ag max-min: 12.9

Results for Nc1nccnc1C(=O)N1CCCCCC1C1CCCCC1 (stereo not drawn) ?
NPYLR7 ag: -1.2; NPYLR7 ag max-min: -2.5

Results for Cc1cc(C(=O)N(Cc2ccccn2)CC2CCCO2)nc(C)n1 (stereo not drawn) ?
NPYLR7 ag: 2.2; NPYLR7 ag max-min: 0.1

Results for NC(=O)c1c(NC(=O)c2noc3c2CCCCC3)sc2c1CCCC2 ?
NPYLR7 ag: -10.4; NPYLR7 ag max-min: -8.4

Results for CCN(Cc1ccncc1)C(=O)CSc1nnc(C)s1 ?
NPYLR7 ag: -1.3; NPYLR7 ag max-min: -6.3

What do the screens show for `CNS(=O)(=O)c1ccc(Cl)c(C(=O)Nc2nc(C)cs2)c1`?
NPYLR7 ag: 6.6; NPYLR7 ag max-min: 2.6

How did COc1ccccc1CNC(=O)CN1CCN(C)c2ccc(F)cc21 do in these assays?
NPYLR7 ag: -4.3; NPYLR7 ag max-min: -3.9

What do the screens show for `O=C(CN1CCCC1c1ccccc1)NCc1ccccc1Cl` (stereo not drawn)?
NPYLR7 ag: -1.6; NPYLR7 ag max-min: -2.0

What do the screens show for `O=C(c1ccccc1I)N(CC(F)F)c1ccccc1F`?
NPYLR7 ag: 1.8; NPYLR7 ag max-min: -3.9

Results for COc1ccc(CCN(Cc2sccc2C)C(=O)CN(CC(C)C)C(=O)c2cccs2)cc1OC ?
NPYLR7 ag: -4.7; NPYLR7 ag max-min: 0.1

What do the screens show for `N#Cc1ccccc1N=c1oc2ccccc2cc1-c1nc2ccccc2[nH]1`?
NPYLR7 ag: -3.8; NPYLR7 ag max-min: -8.4

How did NS(=O)(=O)c1ccc(CCNc2ncnc3[nH]ncc23)cc1 do in these assays?
NPYLR7 ag: 4.4; NPYLR7 ag max-min: 1.3

Results for CCNC(=O)N1CCCC(OCc2ccccc2)C1 (stereo not drawn) ?
NPYLR7 ag: -3.7; NPYLR7 ag max-min: -1.0

How did COc1ccc(N2CCN(c3cc(C(C)(C)C)nc(SCc4cccc(C(=O)NCc5ccncc5)c4)n3)CC2)cc1 do in these assays?
NPYLR7 ag: 5.1; NPYLR7 ag max-min: 4.4

Results for CC1CN(Cc2nccn2C)CCN1C(=O)OC(C)(C)C (stereo not drawn) ?
NPYLR7 ag: 3.7; NPYLR7 ag max-min: 1.0

What do the screens show for `CCc1ccc2c(-c3cccc(Cl)c3)nc(=O)n(CC)c2n1`?
NPYLR7 ag: -12.8; NPYLR7 ag max-min: -15.6

What do the screens show for `O=C(Nc1ccc(F)c(Cl)c1)c1cc(C2CCCCN2C(=O)c2ccc3c(c2)CCO3)on1` (stereo not drawn)?
NPYLR7 ag: 7.6; NPYLR7 ag max-min: 3.2

How did Cc1cc(CSC(C)C(=O)Nc2ccc(C)c(F)c2)on1 (stereo not drawn) do in these assays?
NPYLR7 ag: 6.3; NPYLR7 ag max-min: 1.9

Results for CCC(=O)N(c1nnc(SCc2nc3sc(C)c(C)c3c(=O)[nH]2)s1)C1CC1 ?
NPYLR7 ag: -2.4; NPYLR7 ag max-min: 3.2

How did Cc1cc(C)cc(NC(=O)CSc2nccn(-c3ccc(F)c(F)c3)c2=O)c1 do in these assays?
NPYLR7 ag: -0.5; NPYLR7 ag max-min: 5.9

What do the screens show for `CN1CCN(C2CC(=O)N(N(C)C)C2=O)CC1` (stereo not drawn)?
NPYLR7 ag: -6.5; NPYLR7 ag max-min: -14.4

What do the screens show for `COc1ccc(OC2CCN(C(C)=O)CC2)c(C(=O)N(C)Cc2ccc(C)o2)c1`?
NPYLR7 ag: 14.1; NPYLR7 ag max-min: 8.7

Results for COc1ccc(-c2nc3ccccn3c2NC(=O)Cc2ccccc2)cc1 ?
NPYLR7 ag: -6.8; NPYLR7 ag max-min: 4.7

How did CCOC(=O)CN1C(=O)CCN(C(=O)c2cccc(C#N)c2)CC(O)c2ccccc21 (stereo not drawn) do in these assays?
NPYLR7 ag: 7.5; NPYLR7 ag max-min: 10.7

What do the screens show for `COc1ccc(-c2cc(C(=O)NC(C)c3ccccc3)c3ccccc3n2)cc1OC` (stereo not drawn)?
NPYLR7 ag: -6.1; NPYLR7 ag max-min: -8.4

How did Cc1ccc(C(=O)N(Cc2nccn2Cc2cccc(C(F)(F)F)c2)C2CCCCC2)cc1 do in these assays?
NPYLR7 ag: 3.5; NPYLR7 ag max-min: 21.0

How did COc1ccc(NC(=O)c2nn(-c3cccc(F)c3)c(OC)cc2=O)cc1Cl do in these assays?
NPYLR7 ag: -7.2; NPYLR7 ag max-min: -10.1

What do the screens show for `CCC(CC)C(=O)N(C)c1c(C)nc2c(OCc3ccc(S(C)(=O)=O)cc3)cccn12`?
NPYLR7 ag: 7.5; NPYLR7 ag max-min: -1.6

How did O=C1OC(c2cccc3ccccc23)=N/C1=C/C(Cl)=C/c1ccccc1 do in these assays?
NPYLR7 ag: -1.9; NPYLR7 ag max-min: -3.5

What do the screens show for `COc1ccc(CS(=O)(=O)CC(=O)N(C)Cc2cccc(F)c2)cc1F`?
NPYLR7 ag: 0.3; NPYLR7 ag max-min: -3.1

How did C=CCOCC(O)CN(Cc1ccccc1)Cc1c(-c2ccccc2)nn(C)c1Oc1ccccc1 (stereo not drawn) do in these assays?
NPYLR7 ag: -4.3; NPYLR7 ag max-min: 5.2

Results for Cc1cc(C(C)NC(=O)CN(C)C(=O)c2ccccc2)c(C)s1 (stereo not drawn) ?
NPYLR7 ag: -1.7; NPYLR7 ag max-min: -2.3

Results for CCc1nccn1CCC(=O)N1CCCC2(CNC(=O)O2)C1 (stereo not drawn) ?
NPYLR7 ag: 2.3; NPYLR7 ag max-min: -7.5

How did CCCC(=O)N(CCCN1CCOCC1)c1nc2c(F)cccc2s1 do in these assays?
NPYLR7 ag: -0.9; NPYLR7 ag max-min: -6.3

How did C=c1cc(C)n(CC(=O)Nc2ccsc2C(=O)OC)c(=O)c1=C1N=C(c2ccc(C)cc2)NO1 do in these assays?
NPYLR7 ag: -11.7; NPYLR7 ag max-min: -18.5

What do the screens show for `c1ncn(CCCNC2CCC3(CCNCC3)CC2)n1`?
NPYLR7 ag: 4.2; NPYLR7 ag max-min: 0.1

What do the screens show for `O=C(NCCn1ncc2c(=O)n(Cc3ccccc3)cnc21)c1ccccc1C(F)(F)F`?
NPYLR7 ag: -0.7; NPYLR7 ag max-min: -4.5

What do the screens show for `CC(C)Cn1c(CN2CC(C)OC(C)C2)nc2c1c(=O)n(C)c(=O)n2C` (stereo not drawn)?
NPYLR7 ag: -0.5&8.0; NPYLR7 ag max-min: -2.2&8.6

Results for O=C(NNS(=O)(=O)c1ccccc1Cl)c1cc2c(s1)CCCCC2 ?
NPYLR7 ag: 0.5; NPYLR7 ag max-min: -0.2

This is a subset (hit frequency here may not be typical).
